Compound activity from PubChem.
VDR inh = vitamin D3 receptor (human) inhibition. Potency, µM, inactives show max response, negative = inhibition, actives largely listed as inhibitors. VDR-SRC2-3 peptide fluorescence polarization, 2 h. hit rate 0.93% among 400,000. AID 504847; active means well fitted inhibition curve with a large enough effect; inconclusive means small, poorly fitted or top-dose-only effect, or another doubt; inactive means no such curve, though single readings can be large or run the other way; further: series mostly up to about 120 µM
Target sequence (P11473 whole entry, looked up): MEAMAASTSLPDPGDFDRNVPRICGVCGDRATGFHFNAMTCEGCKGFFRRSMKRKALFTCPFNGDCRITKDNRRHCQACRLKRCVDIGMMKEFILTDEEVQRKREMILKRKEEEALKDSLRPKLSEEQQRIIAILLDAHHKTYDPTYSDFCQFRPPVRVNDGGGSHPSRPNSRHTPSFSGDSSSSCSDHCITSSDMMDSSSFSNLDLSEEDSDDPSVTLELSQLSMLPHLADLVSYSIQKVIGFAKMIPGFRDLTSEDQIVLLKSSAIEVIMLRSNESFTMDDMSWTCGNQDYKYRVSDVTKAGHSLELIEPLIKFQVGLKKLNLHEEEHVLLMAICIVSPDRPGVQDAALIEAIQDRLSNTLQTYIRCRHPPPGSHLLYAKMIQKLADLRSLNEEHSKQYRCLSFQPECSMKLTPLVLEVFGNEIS
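Fluorescence polarization assay of small-molecule disruption of VDR binding to coregulator peptide SRC2-3. Compounds and controls pin-transferred, then read after 2 h incubation at ambient room temperature.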
Starred values were filed as active, the others as inactive; ? = inconclusive. On the % scale 0 is the no-effect control and ±100 the full control effect; potency means the concentration at half of the fitted maximal effect. Some of the compounds tested; count on the stated rates, not on these rows.

SMILES | VDR inh
CC(=O)c1cccc(Nc2nc(N3CCOCC3)nc(N3CCOCC3)n2)c1 | 13%
CCCN(CCC)CCNC(=O)CS(=O)Cc1nc(-c2ccc(C)cc2)oc1C (stereo not drawn) | -6%
CN(C)Cc1ccc(O)c(CCc2ccccc2)n1 | -7%
COc1ccc(-n2c(SCC(=O)N(C)C3CCS(=O)(=O)C3)nc3ccc(O)cc3c2=O)cc1OC (stereo not drawn) | 14%
COc1cc(C2NC(=O)c3c(sc4c3CCN(C)C4)N2)cc(Br)c1OC(=O)c1ccc(C)cc1 (stereo not drawn) | -10%
O=C(/C=C/c1ccc(Cl)cc1Cl)n1cccn1 | ?
CCOC(=O)CSc1c(-c2ccc(Cl)cc2)[nH]c2ccccc12 | ?
CC12CCC(=O)N1C(C(=O)Nc1nccs1)CS2 (stereo not drawn) | 9%
CCOCCCn1c(SCC(=O)N(C)C2CCS(=O)(=O)C2)nc2ccccc2c1=O (stereo not drawn) | 23%
COc1ccc(Cl)cc1NCc1nnc2n1CCCCC2 | -1%
CC[C@@H](C)[C@@H]1CN([C@@H](C)CN2CCC[C@H]2CN2C(N)=NC[C@@H]2Cc2ccccc2)C(=N)N1CCc1ccc(Cl)c(Cl)c1 | -10%
CCOC(=O)c1ccc(NC(=O)CSc2nc3c([nH]c4ccccc43)c(=O)n2C)cc1 | 8%
S=C(NC1CC1)N1CCN(C(=S)NC2CC2)CC1 | 7%
COc1ccccc1C1NC(c2ccc3c(c2)OCO3)=CC(c2cc(Cl)ccc2O)N1 (stereo not drawn) | -28%
Cc1ccc(SCC(=O)N2CCN(S(=O)(=O)c3cccs3)CC2)cc1 | -14%
COc1ccc(NC(=O)c2c(C)nn(Cc3ccccc3)c2Cl)cc1S(=O)(=O)N1CCOCC1 | -18%
COC(=O)c1ccccc1NC(=O)C1CC(=O)N(c2ccc(OC)cc2)C1 (stereo not drawn) | -2%
CCCC(=O)C1=C(O)C(C(=O)OC)C(C)(C)CC1=Nc1ccc(C)cc1 (stereo not drawn) | 5%
COc1ccc(NC(=O)CSCc2cc(=O)c3cc(C)ccc3[nH]2)cc1 | 6%
CCOCC(=O)N1CCc2ccccc21 | -10%
C=CCN=C(NC#N)SC | -6%
CC1CCCN(C(=O)Cc2cn(Cc3cccc(Cl)c3)c3ccccc23)C1 (stereo not drawn) | -16%
Cc1ccc(OC(=O)COc2ccccc2C)cc1 | 12%
COc1cccc(-c2nc(CS(=O)CC(=O)NC(C)CCc3ccccc3)c(C)o2)c1 (stereo not drawn) | -13%
COC(=O)c1c(NC(=O)CCc2ccc(C)o2)sc(C)c1C | ?
O=C(CCC1CCCN(c2ncccn2)C1)N1CCN(c2ccccn2)CC1 (stereo not drawn) | 12%
CC(C)(C)NC(=O)c1ccc2c(c1)N(CC(=O)N1CCCCC1)C(=O)C(C)(C)O2 | -26%
O=C(COC(=O)Cc1ccsc1)Nc1ccc(Cl)cc1F | -6%
COc1ccc(-n2c(COc3cccc(C)c3)nnc2SCC(=O)NCc2ccco2)cc1 | 4%
O=C(CN1CCCSc2ccccc21)N1CCN(S(=O)(=O)c2cccc(F)c2)CC1 | 12%
O=C1CN(C(=O)COC(=O)c2ccccc2Br)c2ccccc2N1 | -9%
CCNC(=O)c1c(NC(=O)Cc2coc3cc(C)ccc23)sc2c1CCCC2 | 6%
CS(=O)(=O)N1CCC(C(=O)N2CCc3ccccc3C2)CC1 | 4%
CCOC(=O)c1ccc(NC(=O)c2ccccc2N(C)S(=O)(=O)c2ccccc2)cc1 | -21%
COc1ccc(COC(=O)Nc2cn(C)nc2C(F)(F)F)cc1 | 14%
CC1(C)CC(=O)N(Cc2ccccc2)C(=O)C1 | 3%
O=C(Cn1[nH]c(=O)c2ccccc2c1=O)Nc1ccc(-c2nnc3n2CCCCC3)cc1 | 4%
CCC1(C)Cc2ccccc2-c2nc(NN)[nH]c(=O)c21 (stereo not drawn) | -17%
CCN1CCN(S(=O)(=O)c2ccc(Cl)c(C(=O)N(C)CC(=O)Nc3c(C)cccc3C)c2)CC1 | 4%
C#CCOCCOCCOCCNc1nc(N2CCN(C(=O)Cn3cc(CCO)nn3)CC2)nc(N2CCN(C(=O)[C@H](C)n3cc(CCCN=C(N)N)nn3)CC2)n1 | -9%
CCN(C[C@H]1N[C@@](CC)(C(=O)OC)[C@H]2C(=O)N(C)C(=O)[C@@H]12)C(=O)Nc1ccc(F)cc1 | -17%
CN(C)CCOc1cccc(Cl)c1 | -1%
COc1ccc(NC(=O)c2cccnc2SC)cc1S(=O)(=O)N1CCCCC1 | -11%
C[C@H](CO)N1C[C@H](C)[C@@H](CN(C)C(=O)NC2CCCCC2)Oc2c(NC(=O)C3CCCCC3)cccc2C1=O | -8%
CCOC(=O)c1ccc(NC(=O)Cn2c(=O)n(-c3ccc(C)cc3)c(=O)c3c2cnn3C)cc1 | -16%
O=C(CCS(=O)(=O)c1cc(Br)cc2c1N(C(=O)C1CC1)CC2)N1CCN(c2ccccc2)CC1 | 4%
Clc1ccccc1-c1nnc(COc2ccccc2)o1 | 6%
Cc1cccc(OCCCC(=O)Nc2ccc(S(N)(=O)=O)cc2)c1C | -10%
CN(C(=O)CSc1nnc(-c2cccnc2)n1-c1ccccc1F)C1CCS(=O)(=O)C1 (stereo not drawn) | 0%
CCC(=O)N1c2ccccc2CC1C(=O)NCc1cccc(OC)c1OC (stereo not drawn) | 7%
(cont.)
SMILES | VDR inh
NC(=O)CSc1nnc(Cc2ccc3c(c2)OCO3)o1 | -6%
CCOC(=O)c1ccc(-c2c(-c3ccc4c(c3)OCO4)noc2C)cc1F | -22%
CC1CC(=O)c2cnc(NCc3ccco3)nc2C1 (stereo not drawn) | 7%
COc1ccc(N(CC(=O)N/N=C/c2ccc(OC)c(OC)c2)S(=O)(=O)c2ccccc2)cc1 | -7%
COC(=O)CC(NS(=O)(=O)c1cccs1)c1cccc2ccccc12 (stereo not drawn) | -5%
COc1ccccc1NC(=O)CCC(=O)O | 3%
CC(Oc1cccc(NC(=O)c2cccs2)c1)C(=O)c1ccccc1 (stereo not drawn) | 7%
CC(=O)n1nc(-c2cccc(C)c2)nc1SCC(=O)Nc1ccccc1 | 4%
Cc1ccc(NC(=O)c2sccc2SCc2cccc(C(F)(F)F)c2)cc1 | 18%
C=C1C[C@H](O)[C@@H]2[C@H](OC(=O)[C@H]2C)[C@H]2[C@H](C)[C@@H](O)C[C@@H]12 | -1%
O=C(NCCC1=CCCCC1)C1CCC(CNS(=O)(=O)c2ccccc2)CC1 (stereo not drawn) | 9%
CCOc1cc(C2C(C(=O)OC)=CN(Cc3ccc(Cl)cc3)C=C2C(=O)OC)ccc1O | -15%
Cc1ccc(C(=O)OCC(=O)Nc2ccc3c(c2)OCO3)cc1S(=O)(=O)N1CCOCC1 | -2%
COC(=O)[C@@H]1C[C@@H]2CC[C@@H](O)C[C@@H]2N1Cc1ccc(N2CCN(C)CC2)cc1 | -11%
COc1ccc(OC)c(S(=O)(=O)N2CCN(C)CC2c2ccccc2)c1 (stereo not drawn) | 9%
Cc1ccc(OCCC(=O)OCC(=O)NCc2ccccc2)cc1 | 17%
c1ccc2c(c1)CCN(CCCNc1nc3ccccc3n3cnnc13)C2 | 11%
c1csc(-c2nnc(N3CCCCCC3)c3ccccc23)c1 | -3%
CC1(C)C(=O)N(CC(=O)Nc2ccc(Cl)cc2)c2ccccc21 | 7%
Cc1ccc(Nc2nc(=O)c3cccnc3s2)c(Br)c1 | 2%
O=C(c1cnn2c(C(F)F)cc(-c3ccccc3)nc12)N1CCCCC1c1cccnc1 (stereo not drawn) | 7%
O=C1NC(C(=O)O)=CC(c2cccc(Cl)c2Cl)N1 (stereo not drawn) | 11%
O=C(Cn1nnc(-c2ccccc2NC(=O)c2cccs2)n1)Nc1ccccc1 | 12%
COc1cc(NC(=O)C2C3CCC(O3)C2C(=O)O)cc(OC)c1 (stereo not drawn) | -8%
COc1cc2ccccc2cc1C(=O)Nc1ccc2oc(=O)ccc2c1 | -3%
COc1ccc(OC)c(NS(=O)(=O)c2cccc3cccnc23)c1 | 14%
CC1(NC(=O)Cc2c(F)cccc2Cl)CCS(=O)(=O)C1 (stereo not drawn) | 17%
CCCCC(=O)Nc1cccn2ncnc12 | -10%
Cc1cnc(C(=O)OCc2c(C)cc(C(C)(C)C)cc2C)cn1 | -7%
CCOc1nc(-c2ccc(C)cc2)ccc1-c1noc(-c2ccccc2F)n1 | 11%
O=C(NNC1CC(=O)N(c2ccc3c(c2)OCCO3)C1=O)c1ccc(Cl)cc1 (stereo not drawn) | 7%
O=C(NC1CCCCCCC1O)c1ccccc1 (stereo not drawn) | -3%
CN(C)S(=O)(=O)c1cccc(NC(=O)COC(=O)c2cccc(S(=O)(=O)N3CCc4ccccc4C3)c2)c1 | 5%
COC(=O)C1=C(C)N(c2ccc(C(=O)OC)cc2)C(=O)C1 | -8%
COc1ccccc1Cn1c(=O)oc2ccc(C)cc21 | 18%
Cc1ccc(C)c(S(=O)(=O)c2cnc(SCC(=O)Nc3ccc(F)cc3F)[nH]c2=O)c1 | 1%
CC(=O)NS(=O)(=O)c1ccc2c(c1)C(=O)c1cc(S(=O)(=O)NC(C)=O)ccc1-2 | -1%
COC(=O)c1c(C)[nH]c(O)c1C=Nc1ccc(C(C)C)cc1 | -2%
CCn1c(SCC(=O)N2CCCC2)nc2c(c1=O)SCC2 | 10%
CCCN(CCC)C(=O)c1c2c(nc3ccccc13)C(=O)N(C1CCCCC1)C2 | -2%

Ordered by molar mass (rising): part of the list above
SMILES | VDR inh
CCCCC(=O)Nc1cccn2ncnc12 | -10%
O=C(NC1CCCCCCC1O)c1ccccc1 (stereo not drawn) | -3%
COc1ccccc1Cn1c(=O)oc2ccc(C)cc21 | 18%
O=C1NC(C(=O)O)=CC(c2cccc(Cl)c2Cl)N1 (stereo not drawn) | 11%
COC(=O)C1=C(C)N(c2ccc(C(=O)OC)cc2)C(=O)C1 | -8%
COC(=O)c1c(C)[nH]c(O)c1C=Nc1ccc(C(C)C)cc1 | -2%
c1csc(-c2nnc(N3CCCCCC3)c3ccccc23)c1 | -3%
Cc1cnc(C(=O)OCc2c(C)cc(C(C)(C)C)cc2C)cn1 | -7%
COc1cc(NC(=O)C2C3CCC(O3)C2C(=O)O)cc(OC)c1 (stereo not drawn) | -8%
CCn1c(SCC(=O)N2CCCC2)nc2c(c1=O)SCC2 | 10%
COc1ccc(OC)c(NS(=O)(=O)c2cccc3cccnc23)c1 | 14%
COc1cc2ccccc2cc1C(=O)Nc1ccc2oc(=O)ccc2c1 | -3%
c1ccc2c(c1)CCN(CCCNc1nc3ccccc3n3cnnc13)C2 | 11%
CCOc1nc(-c2ccc(C)cc2)ccc1-c1noc(-c2ccccc2F)n1 | 11%
CCCN(CCC)C(=O)c1c2c(nc3ccccc13)C(=O)N(C1CCCCC1)C2 | -2%
O=C(NNC1CC(=O)N(c2ccc3c(c2)OCCO3)C1=O)c1ccc(Cl)cc1 (stereo not drawn) | 7%
O=C(Cn1nnc(-c2ccccc2NC(=O)c2cccs2)n1)Nc1ccccc1 | 12%
CC(=O)NS(=O)(=O)c1ccc2c(c1)C(=O)c1cc(S(=O)(=O)NC(C)=O)ccc1-2 | -1%
O=C(c1cnn2c(C(F)F)cc(-c3ccccc3)nc12)N1CCCCC1c1cccnc1 (stereo not drawn) | 7%
Cc1ccc(C)c(S(=O)(=O)c2cnc(SCC(=O)Nc3ccc(F)cc3F)[nH]c2=O)c1 | 1%
CN(C)S(=O)(=O)c1cccc(NC(=O)COC(=O)c2cccc(S(=O)(=O)N3CCc4ccccc4C3)c2)c1 | 5%

The list goes on:
SMILES | VDR inh
Cc1ccc(C(=O)NCCCNC(=O)c2ccccn2)cc1 | 24%
O=C(Cc1ccc(F)cc1)Nc1cccc(-c2nc3cccnc3s2)c1 | 13%
CCn1c(SCC(=O)Nc2ccccc2N2CCCCC2)nc2c1c(=O)n(C)c(=O)n2C | 16%
O=C(NC(=S)NCCN1CCOCC1)c1ccccc1Cl | 24%
CCOC(=O)CN(C(=O)CSc1nnc(C)n1-c1ccccc1)c1ccccc1 | 7%
CC(=O)NC(Cc1ccccc1)c1ccc2c(c1)OCCCO2 (stereo not drawn) | 9%
CCOC(=O)c1c(NC(=O)C2c3ccccc3Oc3ccccc32)sc2c1CCC(CC)C2 (stereo not drawn) | 4%
Cc1ccc(NC(=O)N2CCCC2C(=O)Nc2nnc(C(C)C)s2)cc1 (stereo not drawn) | -10%
CN1CCN(c2ccc(CNC(=O)c3ccc4c(c3)OCCO4)cc2)CC1 | 2%
CN(C)C(=O)c1cc(C(=O)c2ccc(Cl)cc2Cl)c[nH]1 | -8%
CC(=O)c1nn(-c2ccc(OC(F)(F)F)cc2)nc1Nc1ccccc1 | 9%
Cc1cc(C(=O)NCCC(c2ccccc2)c2ccccc2)c(C)o1 | 3%
Clc1cccc(-c2ccc(C=Nc3ccc(N4CCOCC4)cc3)o2)c1Cl | ?
CCOC(=O)c1c(Nc2ccccc2)sc(/C=C2\C=Nc3ccccc32)c1O | 2%
O=C(c1cccs1)N1CCN(S(=O)(=O)c2cccs2)CC1 | 9%
CC1CN(C(=O)COc2ccc3c(-c4ccccc4)cc(=O)oc3c2)CC(C)O1 (stereo not drawn) | -18%
O=C(CSc1nnc(Nc2ccccc2F)s1)NCC1CCCO1 (stereo not drawn) | -17%
Cc1nc(-c2ccccc2)nc(-c2ccccc2)n1 | 4%
Cc1ccc(S(=O)(=O)NC2CCC(C(=O)O)CC2)cc1 (stereo not drawn) | 0%
O=C(c1cccs1)N1CCCC(c2nc3c(nnn3Cc3c(Cl)cccc3Cl)c(=O)[nH]2)C1 (stereo not drawn) | 1%
c1ccc(CCN=C2CCCc3c2[nH]c2ccccc32)cc1 | -1%
Cc1cc(Br)ccc1NC(=O)c1ccc(-n2cncn2)c([N+](=O)[O-])c1 | -1%
CCN(CC(=O)NCCCN1CCOCC1)S(=O)(=O)c1cc(Cl)ccc1Cl | -26%
C/C(CC(=O)NCc1ccco1)=N\NC(=O)CC#N | 2%
O=C(NNc1ccc(Cl)cc1)c1cccs1 | ?
